VACV mCherry inh: inhibitors of vaccinia virus infection (mCherry reporter signal); 310,000 tested, 0.63% active; Potency, µM (doses to about 36.5 µM), inactives show top-dose activity change, negative = inhibition, usual class: inhibitors; Vaccinia virus mCherry reporter infection, fluorescence; about a quarter of the inactives have no number; active = well fitted inhibition curve with a large enough effect; inconclusive = small, poorly fitted or top-dose-only effect; inactive = no such curve, though single readings can be large or run the other way; tested in A549 cells; also: nearly all actives have a fitted effect of over 35% in size; inactives centre near -10
VACV Venus inh: vaccinia inhibition (Venus reporter) | Vaccinia virus Venus reporter expression, fluorescence | Potency, µM (doses to about 36.5 µM), for the others: top-dose activity change, negative = inhibition, usual class: inhibitors | 330,000 tested, 0.46% active | AID 720580; active means well fitted inhibition curve with a large enough effect; inconclusive means small, poorly fitted or top-dose-only effect; inactive means no such curve, though single readings can be large or run the other way; tested in A549 cells; also: nearly all actives have a fitted effect of over 30% in size; inactives centre near -10
The depositor's hits bear a star; i = inactive; ? = inconclusive; / = no result given; [ ] = dose if it differs, or a comment. % is scaled to controls: 0 for no effect and ±100 for the full control effect; potency is read from the fitted curve at half-maximal effect.

SMILES | VACV mCherry inh | VACV Venus inh
CCOC(=O)C1(C)NC(c2ccccc2F)C2C(=O)N(CC)C(=O)C21 (configuration not stated) | i | -18%
COc1ccc(NC(=S)N(CCC(C)C)C(C)c2ccncc2)cc1 (configuration not stated) | i | -15%
CCNC(=S)Nc1ccc(N2CCCCC2)cc1 | -9% | 1%
N#Cc1ccc(OCCN2C(=O)NC3(CCSC3)C2=O)cc1 (configuration not stated) | -7% | 0%
CC1CCN(C(=O)CN2C(=O)c3ccccc3S2(=O)=O)CC1 | -11% | -11%
COc1ccc(S(=O)(=O)N2CCC(C(=O)N3CCc4ccccc4C3)CC2)cc1Cl | -19% | -18%
CC(=O)c1ccc(N2CCN(S(=O)(=O)c3ccc(-c4coc(C)n4)cc3)CC2)cc1 | -12% | -6%
CCOc1ccccc1CNC(=O)c1cc2c(=O)n(Cc3cccnc3)ccc2nc1C | -7% | -11%
CC(C)OC(=O)N(C)C[C@@H]1OCc2cnnn2CCCC(=O)N([C@H](C)CO)C[C@H]1C | i | -13%
COc1ccc(-c2oc3cc(O)c(OC)c(O)c3c(=O)c2OC)cc1 | -23% | -17%
C[C@H](CO)N1C[C@H](C)[C@@H](CN(C)Cc2ccc3c(c2)OCO3)Oc2c(NS(=O)(=O)c3cn(C)cn3)cccc2C1=O | i | -9%
CCNC(=S)NNC(=O)c1cc(Br)cs1 | 0% | -5%
CC1CCCN(Cc2cn3c(-c4cccc(Br)c4)nnc3s2)C1 (configuration not stated) | -2% | -9%
O=S(=O)(NC1CCCCCCC1)OCC(Cl)(Cl)Cl | -16% | ?
CC(C)(C)NC(=O)NCCc1ccccc1 | i | -12%
CCCS(=O)(=O)N1CCC(C(=O)Oc2ccc(OC)cc2)CC1 | -4% | 26%
CCOc1ccc(CNC(=O)c2[nH]c3ccccc3c2Sc2ccc(C)cc2)cc1 | -20% | ?
CN(C)c1ccc(NC(=O)CSc2nc(C3CC3)nc3ccccc23)cc1 | ? | -9%
c1cc2c(cc1C1CCCN1)OCCCO2 (configuration not stated) | -18% | -16%
S=c1[nH]nc(-c2ccc3ccccc3n2)n1-c1ccccc1Cl | -11% | -15%
CCCN1C2CCCC1CC(NC(=S)NCCCOCC)C2 (configuration not stated) | -19% | -15%
Cc1ccc(-n2nc(C)c(C(=O)NCCCN3CCN(c4ccc(F)cc4)CC3)c2-n2cccc2)cc1 | ? | -27%
COc1ccc(NC(=O)c2cccc3c2C(=O)N(CC2CCCO2)C3)cc1OC (configuration not stated) | -3% | -6%
CC(C)NC(=O)CC(=O)N/N=C/c1ccccc1F | / | -14%
O=C(CSc1cn(CCNC(=O)c2ccc3ccccc3c2)c2ccccc12)NCc1ccco1 | ? | ?
COCCNS(=O)(=O)c1ccc2c(c1)Cc1cc(S(=O)(=O)NCCOC)ccc1-2 | -7% | 6%
C[C@H](CO)N1C[C@H](C)[C@@H](CN(C)C(=O)CN2CCOCC2)Oc2ncc(-c3cncnc3)cc2C1=O | -13% | -8%
O=C(Cc1cccc(NC(=O)C2CCN(C(=O)C3CCC3)CC2)c1)Nc1cccc(C(=O)N2CCOCC2)c1 | -18% | -1%
CCC(C)(C)n1nnnc1C(c1ccc2ncccc2c1)N1CCCC(C)C1 (configuration not stated) | -2% | -28%
CCC(C)NC(=O)CNC(=S)N(Cc1ccc(F)cc1)C1CCCCC1 (configuration not stated) | -3% | 0%
COc1cccc(NC2=NCCCCC2)c1 | -13% | -4%
c1ccc(-c2csc3ncnc(-n4cnc5ccccc54)c23)cc1 | / | ?
COC(=O)c1ccc(CSc2nc3ccccc3c(=O)n2-c2ccc(OC)c(OC)c2)o1 | -25% | -21%
Cc1ccc(S(=O)(=O)N(C)CC(=O)Nc2ccc(C)cn2)cc1 | -17% | -14%
O=C(COc1ccccc1Cl)Nc1ccc(S(=O)(=O)N2CCOCC2)cc1 | i | -8%
CCOCCCNC(=O)c1c(C)[nH]c(C(=O)OCC)c1C | -10% | -7%
O=C(CNC(=O)c1ccc(N2CCCC2=O)cc1)Nc1ccc(F)c(F)c1F | i | 0%
Cc1ccc2oc(C(=O)N3CCN(Cc4ncccc4C)CC3)c(C)c2c1 | -6% | -9%
CN(C)c1ccc(CC(=O)N2CCCC(c3cc(C(=O)Nc4ccccc4)no3)C2)cc1 (configuration not stated) | ? | -10%
COc1ccc(C(O)c2nc(-c3cc(F)cc(F)c3)cs2)cc1 (configuration not stated) | 2% | -2%

26 consecutive compounds from above, for reference:
SMILES | VACV mCherry inh | VACV Venus inh
CC(C)(C)NC(=O)NCCc1ccccc1 | i | -12%
CCCS(=O)(=O)N1CCC(C(=O)Oc2ccc(OC)cc2)CC1 | -4% | 26%
CCOc1ccc(CNC(=O)c2[nH]c3ccccc3c2Sc2ccc(C)cc2)cc1 | -20% | ?
CN(C)c1ccc(NC(=O)CSc2nc(C3CC3)nc3ccccc23)cc1 | ? | -9%
c1cc2c(cc1C1CCCN1)OCCCO2 (configuration not stated) | -18% | -16%
S=c1[nH]nc(-c2ccc3ccccc3n2)n1-c1ccccc1Cl | -11% | -15%
CCCN1C2CCCC1CC(NC(=S)NCCCOCC)C2 (configuration not stated) | -19% | -15%
Cc1ccc(-n2nc(C)c(C(=O)NCCCN3CCN(c4ccc(F)cc4)CC3)c2-n2cccc2)cc1 | ? | -27%
COc1ccc(NC(=O)c2cccc3c2C(=O)N(CC2CCCO2)C3)cc1OC (configuration not stated) | -3% | -6%
CC(C)NC(=O)CC(=O)N/N=C/c1ccccc1F | / | -14%
O=C(CSc1cn(CCNC(=O)c2ccc3ccccc3c2)c2ccccc12)NCc1ccco1 | ? | ?
COCCNS(=O)(=O)c1ccc2c(c1)Cc1cc(S(=O)(=O)NCCOC)ccc1-2 | -7% | 6%
C[C@H](CO)N1C[C@H](C)[C@@H](CN(C)C(=O)CN2CCOCC2)Oc2ncc(-c3cncnc3)cc2C1=O | -13% | -8%
O=C(Cc1cccc(NC(=O)C2CCN(C(=O)C3CCC3)CC2)c1)Nc1cccc(C(=O)N2CCOCC2)c1 | -18% | -1%
CCC(C)(C)n1nnnc1C(c1ccc2ncccc2c1)N1CCCC(C)C1 (configuration not stated) | -2% | -28%
CCC(C)NC(=O)CNC(=S)N(Cc1ccc(F)cc1)C1CCCCC1 (configuration not stated) | -3% | 0%
COc1cccc(NC2=NCCCCC2)c1 | -13% | -4%
c1ccc(-c2csc3ncnc(-n4cnc5ccccc54)c23)cc1 | / | ?
COC(=O)c1ccc(CSc2nc3ccccc3c(=O)n2-c2ccc(OC)c(OC)c2)o1 | -25% | -21%
Cc1ccc(S(=O)(=O)N(C)CC(=O)Nc2ccc(C)cn2)cc1 | -17% | -14%
O=C(COc1ccccc1Cl)Nc1ccc(S(=O)(=O)N2CCOCC2)cc1 | i | -8%
CCOCCCNC(=O)c1c(C)[nH]c(C(=O)OCC)c1C | -10% | -7%
O=C(CNC(=O)c1ccc(N2CCCC2=O)cc1)Nc1ccc(F)c(F)c1F | i | 0%
Cc1ccc2oc(C(=O)N3CCN(Cc4ncccc4C)CC3)c(C)c2c1 | -6% | -9%
CN(C)c1ccc(CC(=O)N2CCCC(c3cc(C(=O)Nc4ccccc4)no3)C2)cc1 (configuration not stated) | ? | -10%
COc1ccc(C(O)c2nc(-c3cc(F)cc(F)c3)cs2)cc1 (configuration not stated) | 2% | -2%

The listing continues:
SMILES | VACV mCherry inh | VACV Venus inh
COC(=O)C1(C(F)(F)F)N=C(C(F)(F)F)Nc2ccc(Cl)cc21 (configuration not stated) | -13% | -9%
COc1cc2c(C#Cc3cccnc3)c(-c3ccsc3)oc(=O)c2cc1OC | i | 1%
COc1ccc(S(=O)(=O)n2nc(OC(=O)c3cccs3)cc2N)cc1 | -14% | -14%
NC(=S)N=Nc1c(O)[nH]c2cc(F)c(F)cc12 | 3.2µM* | 2.2µM*
COc1ccc(C(CC(=O)NC(C)c2ccc(-c3ccccc3)cc2)NC(C)=O)cc1 (configuration not stated) | -15% | -16%
CCOCc1cnc(C)nc1NCC(=O)c1c(C)[nH]c2ccccc12 | ? | -15%
Cc1cccc2c1NC(=O)C21OCC(CO)([N+](=O)[O-])CO1 (configuration not stated) | ? | 0%
O=C(NCc1cccnc1)c1ccc(Cl)c(S(=O)(=O)N2CCCCCC2)c1 | -22% | -21%
Cc1ccc(/C=C/c2onc(C)c2S(=O)(=O)N2CCC(C(=O)Nc3ccc(OC(F)(F)F)cc3)CC2)cc1 | -11%[7.34 µM] | -3%[7.34 µM]
O=C(NCc1nnc(SCc2ccccc2)n1-c1ccccc1)C12CC3CC(CC(C3)C1)C2 | ? | ?
N#C/C(=C\c1ccc(Cl)cc1)c1nc2ccccc2[nH]1 | -9% | -1%
COC(=O)c1ccc(NC(=S)NC(=O)c2c(-c3ccccc3)noc2C)cc1 | i[7.34 µM] | -12%[7.34 µM]
Cc1cc(C)cc(Nc2cc(C(=O)NCc3ccccc3)c3ccccc3n2)c1 | ? | -21%
O=C(CS(=O)(=O)c1ccccc1)N1CCN(c2ccccc2)CC1 | i | -12%
COc1ccc(-c2nnnn2C)cc1S(=O)(=O)Nc1ccc(C)cc1C | i | -1%
CCCCN(C)CCC(=O)Nc1ccc(F)c(F)c1 | -3% | -17%
C#CCN[C@H](C)Cc1ccccc1 | i | -8%
O=C(CSC1=NS(=O)(=O)c2cc(Cl)ccc2N1)Nc1ccccc1F | -8% | 2%
CC(=O)OCC12COC3c4ccccc4OC(C)(CC1C)C3C2C (configuration not stated) | 0% | -4%
Oc1ccc(Cn2ccnc2)c2cccnc12 | ? | -7%
Cc1ccc2nc(Cl)c(C#N)cc2c1 | -1% | -10%
COc1ccc(N/C(=N/c2nc(C)cc(C)n2)NC(=O)Nc2ccc(Cl)c(Cl)c2)c(OC)c1 | -6% | 2%
COc1ccc(C(=O)OCC(=O)Nc2ccc(OC)c(S(=O)(=O)N3CCCCC3)c2)cc1[N+](=O)[O-] | -22% | -7%
Cc1ccc(OCC(=O)NNC(=O)c2ccc3c(=O)n4c(nc3c2)CCC4)cc1 | -11% | -4%
CCC(C(=O)OC)n1cnc2c(cnn2-c2ccc(F)cc2)c1=O (configuration not stated) | -7% | -5%
CNC(=O)COc1coc(CN2CCN(c3ccccc3OC)CC2)cc1=O | -21% | -16%
O=C(/C=C/c1c(Cl)nc2ccccn12)N1CCCCC1 | -3% | 0%
C[N+]1(CC(=O)c2ccc(Oc3ccc(C(=O)C[N+]4(C)CCOCC4)cc3)cc2)CCOCC1 | -15% | 2%
Cc1c(C)[n+](=O)c(-c2cccs2)c(C)n1[O-] | -13% | -10%
O=S(=O)(Nc1ccc2c(c1)OCCO2)c1cnc[nH]1 | -2% | -12%
COc1cc2c(cc1OC)C(c1cc(OC)c(OC)cc1[N+](=O)[O-])N(C(C)=O)CC2 (configuration not stated) | i | -7%
CCOc1cc(/C=C/c2ccc3cccc([N+](=O)[O-])c3n2)cc(Cl)c1O | -20% | ?
CCOC(=O)c1nnc2c(-c3ccc(Cl)cc3)c(C)nn2c1N | -7% | -3%
O=C(N/N=C/c1coc2ccccc2c1=O)c1cn(-c2ccccc2)nc1-c1ccccc1 | -13% | -20%
CC(=O)Nc1c(O)[nH]c2ccccc12 | -3% | -13%
CC(=O)Nc1ccc(/C=N/NC(=O)c2cc3ccccc3nc2C)cc1 | -8% | -6%
O=S(=O)(c1ccc(Br)cc1)c1nc(-c2ccco2)oc1NCCCn1ccnc1 | i | -9%
CCCCCC(O)c1cccc(OCc2ccc3ccccc3n2)c1 (configuration not stated) | -14% | ?
OCCN(Cc1ccccc1)CC1CC=CCC1 (configuration not stated) | -17% | -12%
CCCN(CC(=O)Nc1ccccc1C)C(=O)c1nn(CC)c(=O)c2ccccc12 | 9% | -10%

Retrieved by structure from the list above (two):
SMILES | VACV mCherry inh | VACV Venus inh
CCCCCC(O)c1cccc(OCc2ccc3ccccc3n2)c1 (configuration not stated) | -14% | ?
CCOc1cc(/C=C/c2ccc3cccc([N+](=O)[O-])c3n2)cc(Cl)c1O | -20% | ?

Other entries.
SMILES | VACV mCherry inh | VACV Venus inh
Cc1ccc(NS(=O)(=O)c2ccc3c(c2)CCN3C(=O)C2CC2)c(C)c1 | -7% | 0%
COc1ccc(-n2nnnc2C(CCc2ccccc2)N2CCN(C/C=C/c3ccccc3)CC2)cc1 (configuration not stated) | 23% | -17%
O=C(c1cc2c(cc1Br)OCCCO2)N1CCCCC1 | -2% | -15%
N#C/C(=C\c1ccc(F)c(Cl)c1)S(=O)(=O)c1ccccn1 | i | -5%
NS(=O)(=O)c1ccc(NC(=O)CSc2nnc(Cc3cccs3)n2-c2ccccc2)cc1 | -13% | -9%
Cc1ccccc1C(=O)N1CCN(c2ccc(NC(=O)c3ccc([N+](=O)[O-])o3)cc2)CC1 | -9% | -21%
CS(=O)(=O)N1CC(C(=O)O)Oc2ccc(CC(=O)O)cc21 (configuration not stated) | -8% | -2%
CN1CCN(CCCNC(=O)c2cn(C3CCCCC3)c(=O)c3c2c2ccccc2n3C)CC1 | ? | -23%
